RE007 growth inh – qHTS Assay for Inhibitors of the HIV-1 protein Vpr. S. pombe RE007 Vpr strain, BacTiter-Glo ATP luminescence, 24 h; control for the full effect not named in the record. Potency, µM (series often up to 92.2 µM), for inactives: at the highest dose activity change, negative = less growth. actives 0.21% (n = 360,000); active = well fitted falling curve with a large enough effect; inconclusive = small, poorly fitted or top-dose-only effect; inactive = no such curve, though single readings can be large or run the other way;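 note: % is set by controls: 0 for no effect and ±100 for the full control effect; nearly all actives have a fitted effect of over 50% in size; the assay follows cell death caused by Vpr and the record does not say whether a fall means rescue or toxicity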
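Fission yeast strain RE007, carrying one chromosomally integrated HIV-1 vpr copy, was seeded at OD 0.01 in PMG+AL medium with 23 nL pinned compound. After 24 h at 30 °C and 99% humidity, viability was read by BacTiter-Glo luminescence.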
Marburg entry inh – qHTS for inhibitors of binding or entry into cells for Marburg Virus. actives 1.8% (n = 300,000). Potency, µM (titrated, usually from 37.8 µM), inactives show top-dose activity change, negative = inhibition, actives largely listed as inhibitors. Marburg virus pseudotyped entry inhibition, cell reporter; control for the full effect not named in the record; about a third of the inactives were read at about 46 µM; active = well fitted inhibition curve with a large enough effect; inconclusive = small, poorly fitted or top-dose-only effect, or effect the other way; inactive = flat fitted curve, though single readings scatter; tested in HEK293 cells; about a fifth of its hits are not listed in these tables; note: % is set by controls: 0 for no effect and ±100 for the full control effect; luciferase read-out
Cruzain Triton – qHTS Assay for Promiscuous and Specific Inhibitors of Cruzain (with detergent). AID 1478, 2009. Cruzipain (Trypanosoma cruzi), P25779. Potency, µM, for inactives: max response, negative = inhibition, actives largely listed as inhibitors. actives 0.43% (n = 200,000). purified cruzain, Z-FR-AMC fluorescence, 0.01% Triton; active = well fitted curve in the direction sought with a large enough effect; inconclusive = small, poorly fitted or top-dose-only effect, or another doubt; inactive = no such curve, though single readings can be large; an effect the other way counts as inactive or inconclusive;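 note: plate controls were neutral wells for no effect and buffer without enzyme for full effect; nearly all actives have a fitted effect of over 40% in size; top concentration of the series not given in the record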
Target sequence (P25779 123-467 limits assumed): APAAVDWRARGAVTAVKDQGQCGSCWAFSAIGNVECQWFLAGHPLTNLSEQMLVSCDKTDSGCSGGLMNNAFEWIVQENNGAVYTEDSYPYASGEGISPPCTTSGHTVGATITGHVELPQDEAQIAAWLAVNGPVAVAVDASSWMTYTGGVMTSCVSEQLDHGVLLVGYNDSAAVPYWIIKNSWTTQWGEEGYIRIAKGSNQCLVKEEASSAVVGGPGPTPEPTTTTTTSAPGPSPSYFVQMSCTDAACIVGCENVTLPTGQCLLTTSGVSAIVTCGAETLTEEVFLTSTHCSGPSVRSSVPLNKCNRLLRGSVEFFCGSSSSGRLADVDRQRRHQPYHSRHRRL
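Enzyme 1.5 nM, Z-FR-AMC 2 uM, NaOAc 100 mM pH 5.5, DTT 5 mM, Triton X-100 0.01%; 15 min RT compound preincubation; kinetic ex360/em450, 60 s delta.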
Cruzain noTriton – qHTS Assay for Promiscuous and Specific Inhibitors of Cruzain (without detergent); purified cruzain, Z-FR-AMC fluorescence, no detergent; Potency, µM, for the others: max response, negative = inhibition, hits mostly inhibitors; actives 2.3% (n = 200,000); active = well fitted curve in the direction sought with a large enough effect; inconclusive = small, poorly fitted or top-dose-only effect, or another doubt; inactive = no such curve, though single readings can be large; an effect the other way counts as inactive or inconclusive;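 note: plate controls were enzyme without inhibitor for no effect and buffer without enzyme for full effect; nearly all actives have a fitted effect of over 40% in size; top concentration of the series not given in the record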
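Detergent-free condition (0.00005% Triton X-100) in acetate buffer pH 5.5 with DTT. 1.5 nM enzyme and compound were pre-mixed 15 min, then 2 uM Z-FR-AMC substrate added; reaction progress from fluorescence change between first and third reads (60 s).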
StopGo reporter – High Throughput Screening for Foot and Mouth Disease Virus Antivirals; human cells with a luciferase reporter of 2A StopGo recoding; control for the full effect not named in the record; Potency, µM (titrated, usually from 57.9 µM), for the others: at the top dose signal change, negative = less light; actives 1.2% (n = 410,000); active = well fitted falling curve with a large enough effect; inconclusive = small, poorly fitted or top-dose-only effect; inactive = no such curve, though single readings can be large or run the other way; tested in HEK293T cells; note: % is set by controls: 0 for no effect and ±100 for the full control effect; nearly all actives have a fitted effect of over 45% in size; luciferase light after 4 h
NS1 function inh – qHTS Assay for Inhibitors of Influenza NS1 Protein Function. actives 0.4% (n = 270,000). Potency, µM (series often up to 46.1 µM), for the others: at the highest dose activity, positive = more growth. AID 2326, 2010. S. cerevisiae slowed by influenza A NS1, growth recovery by OD600; note: actives are rising curves; nearly all actives have a fitted effect of over 50% in size
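Recovery from NS1-induced slow growth read by OD600 in budding yeast switched to galactose assay medium (pH 6.0, -URA) at 1:100 dilution. Compound 23 nl per well; the matching strain lacking NS1 serves as control.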
Lassa entry inh – qHTS for Inhibitors of binding or entry into cells for Lassa Virus; Lassa virus pseudotype entry inhibition, cell reporter; control for the full effect not named in the record; Potency, µM (top dose mostly 37.9 µM), inactives show at the top dose activity change, negative = inhibition, usual class: inhibitors; actives 1.2% (n = 300,000); AID 540256, 2011; active means well fitted inhibition curve with a large enough effect; inconclusive means small, poorly fitted or top-dose-only effect, or effect the other way; inactive means flat fitted curve, though single readings scatter; tested in HEK293 cells; note: % is set by controls: 0 for no effect and ±100 for the full control effect; nearly all actives have a fitted effect of over 50% in size; luciferase read-out
SARS PLpro yeast – qHTS of Yeast-based Assay for SARS-CoV PLP. S. cerevisiae expressing SARS-CoV PLpro, growth rescue; control for the full effect not named in the record. Potency, µM (series often up to 32.9 µM), inactives show at the highest dose activity, positive = growth rescue. actives 0.19% (n = 330,000). AID 485353, 2010; note: 0% is about no effect; nearly all actives have a fitted effect of over 55% in size; growth read by luminescence after 48 h
Numbers without * were called inactive; ? = inconclusive; . = no result given; & = joins results of further samples; [ ] = another dose, or the depositor's remark. Unless noted, calls come from the whole dose curve; as a rule, active means well fitted rising curve with a large enough effect; inconclusive means small, poorly fitted or top-dose-only effect; inactive means no such curve, though single readings can be large or run the other way. Potency is the fitted concentration of half-maximal effect.

SMILES	RE007 growth inh	Marburg entry inh	Cruzain Triton	Cruzain noTriton	StopGo reporter	NS1 function inh	Lassa entry inh	SARS PLpro yeast
COc1ccc(NC(=O)Nn2cnnc2)cc1OC	-0.3%	.	.	.	-23.8%	0.7%	.	2.8%
Cc1ccccc1OCCN1C(=O)C(=O)c2cccc(C)c21	-2.2%	?	-4.3%	?	-2.3%	13.4%	3.6%	-2.1%
Cc1ccc2[nH]c(CSc3nnc(NC(=O)c4ccc(Cl)cc4)s3)cc(=O)c2c1	.	.	5.1%	-8.9%	-3.5%	.	-28.5%[46.1 µM]	.
Cc1cccc(OCc2nnc(SCc3nc4cc(C(F)(F)F)ccc4c(=O)[nH]3)o2)c1	-2.0%	-7.7%	-2.3%	?	-16.5%	7.1%	-5.1%	-1.2%
COc1cc(-c2nc3ccccn3c2N)ccc1O	-0.2%	.	.	.	34.5%[activator]	27.0%	.	7.8%
CCn1c(SCC(=O)Nc2ccccc2OC)nc2ccccc2c1=O	-4.4%	?	-6.1%	-5.9%	.	5.4%	4.2%	11.2%
Cc1ccc(C)c(CNS(=O)(=O)c2c(C)[nH]c(C)c2C(=O)N2CCCC2)c1	11.2%	?	.	.	4.3%	4.1%	-2.9%[46.1 µM]	5.1%
O=C(c1ccccc1)c1ccccc1NC(=O)c1ccccc1C(=O)O	.	.	-1.4%	7.4%	-5.1%	.	3.3%[46.1 µM]	.
O=C(COc1ccccc1Cl)NCCCNC(=O)c1cnccn1	10.9%	6.8%[46.1 µM]	.	.	8.2%	2.6%	9.9%[46.1 µM]	-1.1%
Cn1cnc2nc3n(c2c1=O)CCC3	20.6%	-13.5%	9.5%	-5.7%	14.6%	?	-9.2%	.
Oc1ccc(NC(=S)Nc2ccc(O)cc2)cc1	-8.6%	-12.7%[46.1 µM]	.	.	-6.8%	-0.4%	3.2%[46.1 µM]	-0.4%
COc1cccc(NC(=O)C2CCN(S(=O)(=O)c3cccc4nonc34)CC2)c1	.	?	-9.6%	-11.9%	?	.	16.2%[46.1 µM]	.
COCc1cc(C)nc(NCCc2ccccc2)c1C#N	-2.2%	29.9%	-5.1%	?	0.1%	-61.9%	8.5%	.
OCC1OC(n2cnc3c(NCc4ccccc4O)ncnc32)C(O)C1O (stereo not given)	0.2%	?	.	.	-8.2%	.	2.24µM*	.
O=C(C[n+]1ccc(-c2cc(C(=O)Nc3cccc(C(F)(F)F)c3)c3ccccc3n2)cc1)c1cccc([N+](=O)[O-])c1	-8.6%	?	.	.	?	.	-24.5%[46.1 µM]	-2.4%
COc1ccc(NC(=O)CN(C)C(=O)c2ccc(-c3cccc(C(F)(F)F)c3)o2)cc1	-6.0%	-37.0%	.	.	-18.8%	14.7%	-16.2%	5.3%
COc1cc(NC(=S)N2CCN(C)CC2)cc(OC)c1	5.8%	.	.	.	6.4%	14.2%	.	2.8%
COc1ccc(CCNC(=O)c2cc3c(=O)n4ccccc4nc3n(CCCN3CCOCC3)c2=N)cc1	-26.1%	.	.	.	-23.1%	-19.0%	.	-2.9%
Cc1cccc(NC(=S)N/N=C2/CCCCc3ccccc32)c1	-5.4%	-16.2%	-10.5%	?	-0.4%	?	?	-47.2%
CCC(CC)C(=O)Nc1cc([N+](=O)[O-])ccc1F	0.4%	-0.6%	-1.5%	14.2%	-11.9%	2.4%	4.0%	-21.8%
O=C(O)C1CCCC2CN3CCc4c([nH]c5ccccc45)C3C(O)C21 (stereo not given)	-10.1%	25.1%[46.1 µM]	.	.	13.3%	9.6%	0.8%[46.1 µM]	5.5%
O=C(Nc1cc(=O)[nH]c2ncnn12)c1ccc(Cl)cc1Cl	27.5%	3.1%	4.7%	1.9%	-23.7%	-12.3%	11.8%	2.1%
CCn1c(SCc2nc3sc(C(=O)O)c(C)c3c(=O)[nH]2)nnc1-c1ccc(Cl)cc1	-0.3%	13.4%	.	.	-2.4%	3.4%	-6.1%	0.2%
COc1ccc(NC(=O)CSc2nc3ccccc3c(=O)n2CCNC(C)=O)c(OC)c1	-17.4%	20.1%&20.1%	2.1%	?	-4.6%	-15.0%	6.4%	-5.8%
CN(Cc1ccco1)C(=O)CN1C(=O)NC(c2ccccc2)(c2ccccc2)C1=O	-6.6%	7.3%	.	.	-19.7%	.	-3.4%	-5.1%

The list goes on:
SMILES	RE007 growth inh	Marburg entry inh	Cruzain Triton	Cruzain noTriton	StopGo reporter	NS1 function inh	Lassa entry inh	SARS PLpro yeast
Cc1ccc(-n2nnnc2SCC(=O)NCC2(N3CCOCC3)CCCCC2)cc1	13.3%	12.9%	.	.	0.0%	.	-1.3%	6.6%
O=C(CSc1nnnn1C1CCCC1)Nc1ccccc1F	0.0%	.	.	.	16.0%	-6.8%	.	0.7%
CC(C)OP(=O)(OC(C)C)C(Nc1ccccc1)c1ccccc1C(F)(F)F (stereo not given)	.	?	-5.6%	?	?	26.9%	11.8%	-35.2%
COc1ccc(OC)c(NC(=S)N(CCc2c(C)[nH]c3ccccc23)Cc2cccs2)c1	-16.8%	?	1.1%	?	-6.8%	?	?	-16.3%
Cc1ccc(N(C)C(=O)n2cnc3ccccc32)cc1	19.2%	?	.	.	-6.5%	-0.2%	21.8%	1.3%
CCCCOC(=O)C(C#N)c1nc2ccccc2nc1N1CCN(Cc2ccc3c(c2)OCO3)CC1 (stereo not given)	0.2%	42.4%	-4.0%	?	-8.6%	-30.2%	7.4%	9.5%
COc1cc(CNC(=O)c2cc3n(n2)CCCN(Cc2cccc(F)c2)C3=O)cc(OC)c1OC	.	.	-0.3%	?	-23.2%	.	-29.9%[46.1 µM]	.
Clc1ccc(CN2CCC(CNc3ncnc4onc(-c5ccc(Cl)cc5)c34)CC2)cc1	.	?	0.9%	-6.2%	-13.7%	.	?	.
O=C(CCn1nnc2ccccc21)N1CCN(c2ccccc2)CC1	-12.3%	2.0%	1.9%	3.0%	42.2%[activator]	-2.4%	16.0%	28.1%
COc1ccccc1NC(=O)Nc1ccc(N2CCOCC2)cc1	-0.1%	?	.	.	27.6%	.	?	-4.5%
Cc1ccn2cc(CNS(=O)(=O)c3ccc4ccccc4c3)nc2c1	4.2%	-21.0%	.	.	-13.1%	-7.1%	15.8%	-3.1%
Nc1cc(Nc2ccc(Br)cc2)nc(N)n1	5.4%	-29.3%[46.1 µM]	.	.	17.5%	2.5%	13.5%[46.1 µM]	-2.1%
O=C(CCc1nnc(CCCc2ccccc2)o1)NCCc1ccccc1	5.8%	?	.	.	22.5%	-2.7%	9.6%	-0.6%
CN1CCN(C(=O)c2ccccc2NC(=O)c2ccccc2Br)CC1	6.3%	-18.0%	.	.	-12.5%	8.6%	0.9%	-1.9%
COc1ccc(C(=O)Nc2ccc3c(c2)nc(CN2CCCC2)n3C)cc1	13.7%	16.9%[46.1 µM]	.	.	-14.7%	.	21.4%[46.1 µM]	7.1%
Cc1ccc(C(=O)N2CCN(c3ccc([N+](=O)[O-])cc3-n3cccc3)CC2)cc1	22.6%	?	.	.	?	11.6%	?	-8.6%
CC12CC3(C)CC(C)(C1)CC(C(N)=O)(C2)C3	-7.3%	.	.	.	-15.8%	0.5%	.	0.7%
COc1cccc(-c2csc3nnc(SCC(=O)c4ccc(NC(C)=O)cc4)n23)c1	9.7%	4.4%&16.1%	2.6%	2.5%	7.1%	?	7.5%	0.0%
C=CCN1C(=O)CN=C1Nc1cc(C)cc(C)c1	-2.5%	?	0.8%	-3.4%	6.7%	-1.8%	-2.5%	2.9%
O=C(c1ccc(F)cc1)c1ccc(N2CCCCC2)cc1	-2.0%	.	.	.	45.1%[activator]	-3.0%	.	-3.9%
Cc1ccc(OCC(=O)Nc2ccc(Cl)c(-c3nc4ncccc4o3)c2)c(C)c1	.	.	-4.9%	?	-25.1%	.	?	.
CCOC(=O)Nc1nc(-c2ccc(F)cc2F)cs1	-21.9%	11.4%	-6.3%	-13.2%	0.2%	-18.3%	?	-23.8%
O=C(CCc1nc(-c2ccccn2)no1)NCc1ccc2c(c1)OCO2	-2.8%	19.5%[46.1 µM]	.	.	-2.4%	1.7%	13.8%	0.2%
c1csc(Cn2c(-c3cccs3)nc3ccccc32)c1	13.3%	-18.1%	-8.5%	2.1%	?	-241.9%	4.2%	-3.2%
COc1ccc(OCC(=O)N2CCN(C(=O)COc3ccc(Br)cc3)CC2)cc1	7.1%[3.69 µM]	0.5%&-3.4%	2.4%	?	-25.4%	-22.2%	17.5%	-2.0%
O=C(COC(=O)c1ccco1)NCC1CCCO1 (stereo not given)	-3.4%	?	5.0%	0.6%	-3.7%	-7.5%	-1.1%	11.6%
Cc1cccc(CCNC(=O)C2CCCN(c3ncnc4c3nc3n4CCCCC3)C2)c1 (stereo not given)	6.2%	?	.	.	-19.3%	-13.2%	?	2.9%

Entries of single compounds, looked up by structure. Values in the order: RE007 growth inh	Marburg entry inh	Cruzain Triton	Cruzain noTriton	StopGo reporter	NS1 function inh	Lassa entry inh	SARS PLpro yeast
Record of Cn1cnc2nc3n(c2c1=O)CCC3 : 20.6%	-13.5%	9.5%	-5.7%	14.6%	?	-9.2%	.
Record of Cc1ccc(-n2nnnc2SCC(=O)NCC2(N3CCOCC3)CCCCC2)cc1 : 13.3%	12.9%	.	.	0.0%	.	-1.3%	6.6%
Record of Nc1cc(Nc2ccc(Br)cc2)nc(N)n1 : 5.4%	-29.3%[46.1 µM]	.	.	17.5%	2.5%	13.5%[46.1 µM]	-2.1%
Record of O=C(COC(=O)c1ccco1)NCC1CCCO1 (stereo not given) : -3.4%	?	5.0%	0.6%	-3.7%	-7.5%	-1.1%	11.6%
Record of Cc1ccc(OCC(=O)Nc2ccc(Cl)c(-c3nc4ncccc4o3)c2)c(C)c1 : .	.	-4.9%	?	-25.1%	.	?	.

High-throughput results: PubChem BioAssay, National Center for Advancing Translational Sciences (NCATS)
